HCMV UL50-53 inh: disrupts HCMV UL50-UL53 complex binding. HTRF UL50-UL53 interaction, normalized percent inhibition. inhibition, % (concentration not given with the values). 0.15% of 190,000 active;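 active = both replicates at 50% or more, plus weaker picks with an unusually low signal ratio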;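 also: stock transfer was 100 nL into about 20 µL; 0% = negative control wells and 100% = wells with untagged competitor protein; inactives centre near -12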
GIV Gai3 FP: GIV-Galpha-i interaction inhibition; Galpha-i3/FITC-GIV peptide fluorescence polarization, 90 min; active compounds read low; scaled: aluminum fluoride 0%, vehicle 100%; 0.42% of 210,000 active; P08753; percent of control (FP), % (concentration not given with the values);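 active = replicate mean at 85% of control or lower, very high polarization wells dropped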;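 also: wells of about 15 µL received 100 nL stock; the first replicate is given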
Target sequence (P08753 whole entry, looked up): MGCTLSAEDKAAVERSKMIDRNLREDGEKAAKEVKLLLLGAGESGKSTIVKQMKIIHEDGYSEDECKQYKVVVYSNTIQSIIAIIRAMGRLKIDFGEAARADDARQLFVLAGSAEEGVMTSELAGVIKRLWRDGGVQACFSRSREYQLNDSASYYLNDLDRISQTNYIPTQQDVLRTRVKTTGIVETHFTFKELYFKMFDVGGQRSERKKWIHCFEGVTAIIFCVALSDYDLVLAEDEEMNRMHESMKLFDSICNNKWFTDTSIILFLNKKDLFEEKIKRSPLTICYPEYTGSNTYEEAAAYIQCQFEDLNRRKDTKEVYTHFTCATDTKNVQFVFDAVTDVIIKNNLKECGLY
Sa growth 42C: blocks Staphylococcus aureus growth. AID 720641. 0.53% of 170,000 active. S. aureus RN4220 growth, OD600, 20 h, 42 °C; active compounds read low. relative growth, % (concentration not given with the values);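 active = growth at 42 °C up to 50% and 20 or more points under that at 30 °C, or under 10% at both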;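 also: 300 nL library stock went into each well; scaled to the means of positive and negative controls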
Sa growth 42C second temp: further read-out of Sa growth 42C, marked with its call; relative growth, %; measured here: growth at 30 °C;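 optical density after 20 h as mean of two plates; 100% = untreated growth and lower means inhibition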
The depositor's hits bear a star; / = no result given.

1. CC1(C)CC2CC(C)(CN2C(=O)CSc2ncnc3ccccc23)C1 (stereo unspecified)
2. CC(=O)c1cc(-c2ccccc2)n(CC(=O)NC2CCCCC2)c1C
3. CN1CCN(C(=O)c2ccc3c(c2)N(Cc2ccc(F)cc2)C(=O)c2ccccc2S3=O)CC1 (stereo unspecified)
4. CCOC(=O)c1cnc(N2CCCC2)nc1C1CCNCC1
5. COC(=O)C1=NOC2C(=O)N(c3ccccc3)C(=O)C12 (stereo unspecified)
6. Cc1cc(C)n(-c2nc3ccccc3nc2Nc2cccc(C)c2C)n1
7. CCN(CC)c1nn2c(=O)c(C(=O)NCc3ccc(F)cc3)cnc2s1
8. CCCCN(CC)C(=O)c1cc2c(=O)oc3ccccc3c2n1C

assay / entry | 1 | 2 | 3 | 4 | 5 | 6 | 7 | 8
HCMV UL50-53 inh | 4 | / | -24 | -14 | 0 | 1 | / | -9
GIV Gai3 FP | / | 102 | 104 | 108 | 97 | 108 | 101 | 105
Sa growth 42C | 112 | 117 | 85 | 99 | 102 | 96 | 104 | /
Sa growth 42C second temp | 95 | 88 | 87 | 89 | 97 | 88 | 86 | /

Three compounds already listed, ordered by their value in Sa growth 42C second temp, largest number first:
# | SMILES | Sa growth 42C second temp
5 | COC(=O)C1=NOC2C(=O)N(c3ccccc3)C(=O)C12 (stereo unspecified) | 97
1 | CC1(C)CC2CC(C)(CN2C(=O)CSc2ncnc3ccccc23)C1 (stereo unspecified) | 95
2 | CC(=O)c1cc(-c2ccccc2)n(CC(=O)NC2CCCCC2)c1C | 88

(cont.)
9. Fc1ccc(Nc2nc(SCc3ccc(Cl)cc3)nc3ccccc23)cc1
10. O=C(NN=C1CCCCC1)C1CC1c1ccccc1 (stereo unspecified)
11. CC1CN(CC(=O)N2CCc3ccccc32)c2ccccc2S1 (stereo unspecified)
12. CN(C(=O)CSc1nnc(-c2ccncc2)o1)c1ccccc1
13. COc1ccccc1NC(=O)CSc1nc2nccnc2c(=O)n1Cc1ccc(Cl)cc1
14. CC1(C)C(=O)N(CC(=O)Nc2ccc(Br)cc2F)c2ccccc21
15. COc1ccc2c(CNCCc3ccco3)c(C(=O)O)n(Cc3ccc(C)cc3)c2c1
16. N#C/C(=C/Nc1cccc(C(F)(F)F)c1)c1nc(-c2ccc3c(c2)OCO3)cs1

assay / entry | 9 | 10 | 11 | 12 | 13 | 14 | 15 | 16
HCMV UL50-53 inh | / | 11 | -11 | -22 | -42 | / | / | /
GIV Gai3 FP | 97 | 106 | 106 | 100 | 109 | 104 | 96 | 100
Sa growth 42C | 93 | 90 | / | / | / | 100 | 130 | 99
Sa growth 42C second temp | 86 | 79 | / | / | / | 85 | 80 | 79

17. CS(=O)(=O)c1ccc(C(=O)NCc2ccccc2)cc1
18. O=C(OC1CSC1)c1cccs1
19. COc1ccc(OC)c(C2C(C(=O)N3CCCCC3)=C(C)Nc3nc4ccccc4n32)c1 (stereo unspecified)
20. CCC(Cn1nnc2ccccc2c1=O)NC(=O)Nc1cccc(C)c1 (stereo unspecified)
21. Cn1c(=O)c2c(nc(SCC(=O)Nc3ccccc3F)n2Cc2ccccc2F)n(C)c1=O
22. O=C(c1ccccc1F)N1CCC(Cc2ccccc2)CC1
23. CCOC(=O)c1ccc(NC(=O)COC(=O)c2cc3ccccc3o2)cc1
24. Cc1cc(C(F)(F)F)nc(SCc2ccc(C(=O)O)o2)n1

assay / entry | 17 | 18 | 19 | 20 | 21 | 22 | 23 | 24
HCMV UL50-53 inh | -30 | -20 | 5 | -9 | 0 | -2 | 6 | /
GIV Gai3 FP | / | / | 97 | 105 | 105 | / | 104 | 102
Sa growth 42C | 75 | 82 | 97 | / | 104 | 61 | 108 | 112
Sa growth 42C second temp | 91 | 88 | 92 | / | 95 | 73 | 91 | 75

25. CC1CCN(C(=O)COC(=O)Cc2ccc(Br)cc2)CC1
26. Cc1ccc2c(c1)c1c(n2CC(O)CNCc2ccco2)C(=O)CCC1 (stereo unspecified)
27. CCOC(=O)N1CCC(N2CCc3c([nH]c4ccccc34)C2)CC1
28. C#CCn1c(O)c(N=NC(=O)c2cc(Cl)ccc2O)c2ccccc21
29. Cc1cnc(NC(=O)COc2ccccc2Cl)s1
30. COC(=O)Nc1cc(NC(=O)OC)cc(C(F)(F)C(F)(F)C(F)(F)F)c1
31. Cc1nc2ccc(S(=O)(=O)NC(C(=O)N3CCN(c4cccc(Cl)c4)CC3)C(C)C)cc2s1 (stereo unspecified)
32. COc1ccccc1NC(=O)N1CCN(Cc2ccc3nccnc3c2)CC1

assay / entry | 25 | 26 | 27 | 28 | 29 | 30 | 31 | 32
HCMV UL50-53 inh | 6 | -6 | -14 | -15 | -6 | -10 | -35 | -81
GIV Gai3 FP | / | 108 | 97 | 111 | / | 102 | 100 | 99
Sa growth 42C | 123 | 89 | 104 | 68 | 116 | 122 | 101 | /
Sa growth 42C second temp | 93 | 87 | 103 | 38 | 86 | 96 | 82 | /

33. C/C(CCc1ccccc1)=N/NC(=O)c1ccc(O)cc1
34. Cn1c(=O)c2c(nc(N3CCOCC3)n2Cc2ccccc2F)n(C)c1=O
35. Cc1cccc(C(=O)Nc2cc3c(cc2SC(C)C)n(C)c(=O)n3C)c1
36. COc1ccc(CCNS(=O)(=O)c2ccc3c(c2)NC(=O)CS3)cc1OC
37. CCOC(=O)c1ccc(NC(=O)c2cc3cccnc3n(C)c2=O)cc1
38. CCOC(=O)C1CCN(C(=O)CSC2CCCCC2)CC1
39. Cn1c(=O)sc2cc(S(=O)(=O)N3CCCC3)ccc21
40. COc1ccc(-c2noc(CN3CCC(Cc4ccccc4)CC3)n2)cc1

assay / entry | 33 | 34 | 35 | 36 | 37 | 38 | 39 | 40
HCMV UL50-53 inh | -8 | -24 | -41 | -11 | -40 | -9 | -16 | -24
GIV Gai3 FP | 97 | 107 | 107 | 106 | 103 | / | 107 | 102
Sa growth 42C | 110 | 98 | / | / | 79 | 115 | / | 107
Sa growth 42C second temp | 79 | 85 | / | / | 83 | 88 | / | 90

41. CC(C)CN(CC(C)C)S(=O)(=O)c1ccc2c(c1)CCCC(=O)N2
42. CCCSc1nc(C2CC2)nc2c1c(=O)n(C)c(=O)n2CCC
43. O=C(NCC(c1cccnc1)N1CCc2ccccc2C1)c1cccc(Br)c1 (stereo unspecified)
44. O=C(Nc1ccc(-c2noc(C3CCC3)n2)cc1)Nc1cccc(Br)c1
45. COC(=O)c1ccc(NC(=O)c2cccc(C(=O)Nc3ccc(C(=O)OC)cc3)c2)cc1
46. N#CCCn1cc(/C=C/C(=O)N2CCN(c3ncc(C(F)(F)F)cc3Cl)CC2)c2ccccc21
47. COC(=O)c1c(C)oc(C)c1S(=O)(=O)NC(C)(C)C
48. N#Cc1ccc(N2CCN(C(=O)C34CC5CC(CC(C5)C3)C4)CC2)c(F)c1

assay / entry | 41 | 42 | 43 | 44 | 45 | 46 | 47 | 48
HCMV UL50-53 inh | 1 | 5 | -2 | 10 | / | -24 | 0 | -4
GIV Gai3 FP | 106 | / | 105 | 103 | 103 | / | 101 | 106
Sa growth 42C | 95 | 100 | / | / | 117 | 76 | 105 | 101
Sa growth 42C second temp | 99 | 93 | / | / | 93 | 91 | 74 | 100

Record cards, as listed above. Screens in order: HCMV UL50-53 inh | GIV Gai3 FP | Sa growth 42C | Sa growth 42C second temp
Profile of Cc1cc(C)n(-c2nc3ccccc3nc2Nc2cccc(C)c2C)n1 = 1 | 108 | 96 | 88
Profile of Cc1cc(C(F)(F)F)nc(SCc2ccc(C(=O)O)o2)n1 = / | 102 | 112 | 75
Profile of Cn1c(=O)c2c(nc(N3CCOCC3)n2Cc2ccccc2F)n(C)c1=O = -24 | 107 | 98 | 85
Profile of Cc1ccc2c(c1)c1c(n2CC(O)CNCc2ccco2)C(=O)CCC1 (stereo unspecified) = -6 | 108 | 89 | 87
Profile of Cc1cnc(NC(=O)COc2ccccc2Cl)s1 = -6 | / | 116 | 86

Further entries follow.
49. CCOC(=O)c1cccc(NS(=O)(=O)c2cc(-c3cnc(C)o3)ccc2OC)c1
50. CCC(Sc1nncn2c1cc1occc12)C(=O)Nc1ccc(OC)c(Cl)c1 (stereo unspecified)
51. Cc1c(C)n(-c2cc(F)cc(F)c2)c2ncnc(Cl)c12
52. Cn1c(O)c(C=NCc2ccc3c(c2)OCO3)c(=O)[nH]c1=S
53. ON/C=N/c1nnc(Cc2ccc(F)cc2)s1
54. CCc1ccc(NS(=O)(=O)c2ccc3c(c2)SC(C)C(=O)N3)cc1 (stereo unspecified)
55. CSc1nc(N)c2ccccc2n1
56. COc1ccc(C2(C(=O)Nc3ccc(C)cc3)CCCC2)cc1OC

assay / entry | 49 | 50 | 51 | 52 | 53 | 54 | 55 | 56
HCMV UL50-53 inh | / | -36 | -20 | -14 | -6 | / | 10 | /
GIV Gai3 FP | 101 | 146 | 100 | 105 | 98 | 109 | 105 | 97
Sa growth 42C | 93 | 85 | / | 81 | 101 | 108 | 112 | 90
Sa growth 42C second temp | 90 | 67 | / | 94 | 75 | 73 | 100 | 94

57. COc1cc(NS(=O)(=O)c2ccc3[nH]c4c(c3c2)CCCCCC4)cc(OC)c1
58. CCC1(C)Cc2ccccc2-c2nc3n(c(=O)c21)CC(O)CS3 (stereo unspecified)
59. CCOC(=O)c1ccc(NC(=O)c2sc3nc(N4CCCC4)c4c(c3c2N)CCCC4)cc1
60. CCOC(=O)c1cc(C(=O)NC(C)c2ccccc2)c(C)[nH]c1=O (stereo unspecified)
61. CC(CNC(=O)CCCn1c(=O)c2cccn2c2cccnc21)c1ccccc1 (stereo unspecified)
62. Cc1ccc(C)c(N2CCN(C(=O)c3cc4cc5ccc(C)cc5nc4s3)CC2)c1
63. CC(=O)Nc1nnc(SCc2cc(=O)c3cccc(Cl)c3[nH]2)s1
64. CC(=O)N1CCc2c(sc3c2c(=O)n(-c2ccccc2)c(=O)n3CC(=O)Nc2cc(C)cc(C)c2)C1

assay / entry | 57 | 58 | 59 | 60 | 61 | 62 | 63 | 64
HCMV UL50-53 inh | / | -1 | -16 | -8 | / | -17 | / | /
GIV Gai3 FP | 105 | 102 | 114 | / | 105 | 108 | 101 | 104
Sa growth 42C | 114 | 93 | / | 119 | 93 | 100 | 90 | 110
Sa growth 42C second temp | 78 | 80 | / | 83 | 72 | 86 | 88 | 87

65. CCCn1c(=O)c2ccccc2n2c(=O)n(CC(=O)NCc3ccccc3)nc12
66. COc1cc(-c2noc(-c3ccc(N4CCCC4)c([N+](=O)[O-])c3)n2)cc(OC)c1OC
67. COC(=O)c1cc(C(=O)Nc2ccc(OC)cc2OC)c(=O)[nH]c1C
68. O=C(Cn1c2ccccc2c(=O)c2ccc(Cl)cc21)Nc1ccc(Cl)cc1
69. O=C(Nc1ccc(Br)cc1C(=O)O)c1ccc(N2C(=O)C3C4C=CC(C4)C3C2=O)cc1 (stereo unspecified)
70. CCOc1ccc(Sc2cc(C(=O)NCc3ccccc3Cl)c3ccccc3n2)cc1
71. Cc1ccc(C)c(N2CCN(CCCNC(=O)c3ccc4nc(CCc5ccccc5)oc4c3)CC2)c1
72. Cc1cccc(CN2CCC(CNC(=O)CSc3cc(=O)n(C)c4cc(Cl)ccc34)CC2)c1

assay / entry | 65 | 66 | 67 | 68 | 69 | 70 | 71 | 72
HCMV UL50-53 inh | -31 | -25 | 3 | -5 | 1 | / | / | -35
GIV Gai3 FP | 106 | 103 | 111 | 98 | 103 | 97 | 101 | 101
Sa growth 42C | / | 95 | / | / | / | 118 | 97 | /
Sa growth 42C second temp | / | 86 | / | / | / | 85 | 89 | /

73. c1ccc(Cc2[nH]nc3ccccc23)cc1
74. CCC1Oc2ccc(C)cc2N(CC(=O)N(Cc2ccc3c(c2)OCO3)CC2CCCO2)C1=O (stereo unspecified)
75. CCc1ccc(NC(=O)c2ccc3oc(=O)n(Cc4ccccc4)c3c2)cc1
76. COc1cccc(CCN2CCC(CNS(=O)(=O)c3cc(-c4cc(C)no4)ccc3OC)CC2)c1
77. NCc1cc2ccccc2s1
78. NC(=O)CCN1CCC(c2nc3ccccc3s2)CC1
79. Cc1cc(C)cc(-n2c(-c3ccccc3)c(C)n3c4c(=O)n(C)c(=O)n(C)c4nc23)c1
80. COc1ccc(C2=NNC(=NC3CCCCC3)SC2)cc1

assay / entry | 73 | 74 | 75 | 76 | 77 | 78 | 79 | 80
HCMV UL50-53 inh | -11 | 1 | / | 7 | -24 | 1 | -16 | -34
GIV Gai3 FP | 99 | 105 | 110 | 108 | 103 | / | 103 | /
Sa growth 42C | 101 | 92 | 121 | 100 | 92 | 91 | 109 | 93
Sa growth 42C second temp | 93 | 108 | 100 | 95 | 92 | 94 | 82 | 89

81. CCN(CC)S(=O)(=O)c1ccc(NC2c3ccccc3C(=O)N2Cc2ccco2)cc1 (stereo unspecified)
82. Cc1oc2ncnc(N3CCCCC3)c2c1C(=O)NCC1CCN(Cc2ccc(F)cc2)CC1
83. CC(C)NC(=O)NC1CCCCNC1=O (stereo unspecified)
84. CCCc1cnc2c(c1SCc1cccc(F)c1)c(=O)n(C)c(=O)n2C
85. Nc1cc(=O)nc(SCC(=O)Nc2ccc(F)cc2)n1CCc1ccccc1
86. Cc1ccc2c(c1)N(CC(=O)OCC(=O)NCc1ccccc1)C(=O)CO2

assay / entry | 81 | 82 | 83 | 84 | 85 | 86
HCMV UL50-53 inh | -22 | / | -21 | / | 1 | -6
GIV Gai3 FP | 101 | 107 | 103 | 102 | 107 | 104
Sa growth 42C | 101 | 96 | 96 | 125 | 102 | 109
Sa growth 42C second temp | 85 | 99 | 94 | 92 | 85 | 89
